Assay outcomes deposited in PubChem by Fisher Drug Discovery Resource Center.
NPYLR7 agonist: mosquito NPYLR7 agonism; HEK293T NPYLR7/Galpha15, GCaMP6s calcium fluorescence; AID 1259423; 270,000 compounds, 0.15% hits; activation, % at 10 µM; in the data active means activation above about 40%;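 further: 0% = vehicle and 100% = reference agonist at the receptor; some compounds past the cut are filed as inactive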
NPYLR7 agonist max-min: further read-out of NPYLR7 agonist, marked with its call; activation, %; measured here: Max-Min RFU normalised activation; some inactives read as strong as hits;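 span of the calcium signal over five minutes; 0% = vehicle and 100% = native peptide agonist; compound fluorescence can raise it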
Starred values were filed as active, the others as inactive; & = joins results of further samples. The list is partial; count on the stated rates, not on these rows.

Results follow in this order: NPYLR7 agonist	NPYLR7 agonist max-min
COc1ccc(S(=O)(=O)N2CCC(C(NC(=O)c3cccc(OC)c3)C(=O)NCc3ccco3)CC2)cc1 (stereo not drawn)
  -5	9
CCn1c2c(=O)[nH]c(=O)n(C)c2n2c(-c3cc(Br)ccc3OC)nnc12
  6	2
COc1ccc(-n2ccnc2CN2CCCC(Cn3ccnc3)C2)cc1 (stereo not drawn)
  -7	-11
CCc1nc2c(OCCC3CCCCC3)cccn2c1N(C)C(=O)c1ccco1
  6	-4
CC(C)C1CN(Cc2nccs2)CCC(=O)N1Cc1ccc(F)cc1 (stereo not drawn)
  8	2
CCCn1c(N)c(C(=O)CSc2ccccn2)c(=O)[nH]c1=O
  10	1
Cc1ccc2cc(C3(O)CCN(C(=O)C4CCOC4)CC3)ccc2n1 (stereo not drawn)
  -1	1
CCOC(=O)c1c(NC(=O)c2nc3ccccc3s2)sc2c1CCN(C(=O)OCC)C2
  3	0
Cc1nc(C(=O)NCC(O)c2ccccc2)cs1 (stereo not drawn)
  -8	-12
CS(=O)(=O)Oc1ccc(CNCC2CCCO2)cc1 (stereo not drawn)
  14	11
O=C(Nc1nnc(C2CC2)s1)c1ccc(F)cc1Br
  -2	-2
Cc1cc(C)n(C2CCN(Cc3ccc(Sc4nncn4C)o3)C2)n1 (stereo not drawn)
  -2	-3
Cc1cc(-c2ccc(NC3=NCCCS3)cc2)nc2ccccc12
  9	3
Cc1cc(SCC(=O)NCCc2ccccc2)nc(=O)[nH]1
  0	-3
CN(C(=O)c1ccccc1)C1(C)CCS(=O)(=O)C1 (stereo not drawn)
  12	12
COCCNc1ncccc1-c1noc([C@@H]2CCCN2Cc2ccc(OC)cc2O)n1
  -7	-15
Cc1ccc(CC(=O)NCCc2cc(F)cc3c2OCOC3)cc1
  0	-1
O=C(NCc1nnnn1C1CCCCC1)Nc1ccc(Cl)cc1
  3	0
OC(COCc1ccco1)CN(Cc1ccsc1)Cc1ccco1 (stereo not drawn)
  -4	7
COc1ccccc1C1CN(Cc2nc3ccccc3nc2C)Cc2ccccc2O1 (stereo not drawn)
  4	3
CC(C)CCNC(=O)CSc1nc2c(-c3ccccc3)c[nH]c2c(=O)n1C1CC1
  -5	-9
O=C(Nc1cccnc1)Nc1c[nH]c2ccccc12
  11	2
Cc1ccc2[nH]c(=O)c(CN3CCN(CC(=O)N4CCCC4)CC3)cc2c1
  7	6
COC(=O)c1ccc(N=C2SC(C(=O)NCCc3ccccc3)CC(=O)N2C)cc1 (stereo not drawn)
  3	2
CC(C)CNC(=O)CN1CCN(Cn2nc(Nc3ccccc3Cl)sc2=S)CC1
  11	14
CC(C)N1CCC(CN2CCN3CCN(C)CC3C2)CC1 (stereo not drawn)
  11	7
C=CCN(C(=O)CSc1nnnn1-c1cccc(F)c1)c1ccccc1
  7	11
COc1cccc(C(=O)N2CCN(c3ccc(F)c(Cl)c3)C(=O)C2C)c1 (stereo not drawn)
  -1	5
CCn1nc(C(=O)NCc2ccc(OC)cc2)c2c1CCN(C(=O)Cc1ccc(F)cc1)C2
  19	6
O=C(NC1CCCC1)c1ccc(OC2CCN(C(=O)C3CC34CCC4)CC2)c(Cl)c1 (stereo not drawn)
  3	0
Cc1cc(=O)[nH]c(NNC(=S)NC2CCCCC2)n1
  3	3
CC1CN(c2ccccc2)c2nc3c(c(=O)n(CCCO)c(=O)n3C)n2C1 (stereo not drawn)
  2	-1
Cc1c(C)c(C)c(S(=O)(=O)N2CCC(c3nc(-c4ccc(C(F)(F)F)cc4)no3)CC2)c(C)c1C
  27	22
CCc1nc2oc3ccccc3c(=O)c2c(=O)n1Cc1ccccc1
  2	-2
CCOCCC(=O)Nc1nc2ccc(Br)cc2[nH]1
  3	3
CCCCN(C(=O)C1(C)Cc2ccccc2C(=O)O1)c1ccccc1 (stereo not drawn)
  4	4
COc1ccc(C(CC(=O)NC2CCCCC2)c2c[nH]c3ccccc23)cc1OC (stereo not drawn)
  -2	7
COc1ccc(Br)c(C(=O)Nc2ccc3c(c2)C(=O)N2CCCCC2CCO3)c1 (stereo not drawn)
  -7	-10
Cc1ccc(Sc2ccc(NC(=O)C3CCN(C(N)=O)CC3)cc2)c(C)c1
  11	8
CCCC(C)(C)C(=O)N1CCC1(C)C(=O)NS(=O)(=O)c1ccc(OC)c(OC)c1 (stereo not drawn)
  -4	-4

Five compounds from above, arranged by heavy-atom count, descending.
Results follow in this order: NPYLR7 agonist	NPYLR7 agonist max-min
Cc1c(C)c(C)c(S(=O)(=O)N2CCC(c3nc(-c4ccc(C(F)(F)F)cc4)no3)CC2)c(C)c1C
  27	22
CCCC(C)(C)C(=O)N1CCC1(C)C(=O)NS(=O)(=O)c1ccc(OC)c(OC)c1 (stereo not drawn)
  -4	-4
CC1CN(c2ccccc2)c2nc3c(c(=O)n(CCCO)c(=O)n3C)n2C1 (stereo not drawn)
  2	-1
Cc1cc(=O)[nH]c(NNC(=S)NC2CCCCC2)n1
  3	3
CCOCCC(=O)Nc1nc2ccc(Br)cc2[nH]1
  3	3

Additional compounds.
Results follow in this order: NPYLR7 agonist	NPYLR7 agonist max-min
CC(NCC1(c2ccc(F)cc2)CCOCC1)c1nc(C(C)(C)C)no1 (stereo not drawn)
  -6	683
COc1ccc(NC(=O)CN2CCN(c3cc(N(C)C)c(C#N)c(N(C)C)n3)CC2)cc1
  2	0
O=C(NCCc1cccc(Cl)c1)c1cccnc1Nc1cccc(C(F)(F)F)c1
  -11	-15
COc1cc(C=Nc2ccc(C)cc2O)ccc1OC(C)=O
  -10	-13
O=C(NCC1CCN(c2nc(Cc3ccccc3)ns2)CC1)C(Cl)c1ccccc1 (stereo not drawn)
  -5	4
O=S(=O)(Cc1ccc(F)c(Cl)c1)N1CCN(Cc2nccn2C(F)F)CC1
  3	1
N#Cc1cccc(NC(=O)CSCc2ccc(Cl)cc2)c1
  -7	-9
CN(C)C(=O)COc1ccccc1C(=O)Nc1ccc(Cl)c2ncccc12
  -7	-5
Cc1ccc(C)c(C(C)NC(=O)COc2cccc(NC(=O)C3CC3)c2)c1 (stereo not drawn)
  -4	-4
CCCCN(CC(=O)N(Cc1ccccc1)Cc1cccn1Cc1ccc(F)cc1)C(=O)c1cccs1
  -4	4
CN(C)c1ccc(C2Nc3ccccc3N=C3CC(c4ccccc4)CC(=O)C32)cc1 (stereo not drawn)
  0	-3
CCN1CCN(C(=O)CCN(CC(C)C)c2nc(-c3ccccc3)nc3ccccc23)CC1
  3	12
N#CCc1nc(-c2cccc(Cl)c2)n[nH]1
  1	0
C#CCN1C(=O)[C@]2(C)[C@H](c3ccccc31)[C@@H](C(N)=O)CN2C(=O)NCc1ccccc1
  1	2
Cc1nnc(SCC(=O)NCc2ccc(F)cc2)c2c1cnn2-c1ccc(F)cc1
  -9	-16
CN(Cc1ccc(-c2nn[nH]n2)cc1)C(=O)c1ccn(C)c(=O)c1
  0	-4
COc1ccc(C(=O)NC(C(=O)N2CCCC2)C2CCN(C(=O)c3cccc(OC)c3)CC2)cc1 (stereo not drawn)
  9	10
CO[C@H]1CN(C(=O)C2CCN(C(=O)c3ccccn3)CC2)CC[C@H]1N
  0	9
O=C(CNC(=O)c1ccc2ccccc2n1)NC1CCCCC1
  7	3
COC(=O)c1cccc(NC(=O)C23CC4CC(C2)CC(C(=O)Nc2cccc(C(=O)OC)c2)(C4)C3)c1
  -5	-5
Cc1ccccc1Cn1nc(-c2ccccc2)ccc1=O
  13	6
Fc1ccc(-c2[nH]ncc2CNCC2(Cn3cccn3)CC2)cc1
  0	-2
Cc1ccc(-c2c(NC(C)(C)C)c(=O)c2=O)cc1C
  7	6
Cc1nn(S(=O)(=O)c2ccc(F)cc2)c(C)c1S(=O)(=O)N1CCCCC1
  3	1
Cc1cc(NC(=O)CSCCOc2cccc(Br)c2)no1
  7	5
CCOC(=O)c1cc(C)nn1C1CCN(C(=O)c2cccc(Cl)c2)CC1
  4	2
COc1ccccc1-c1cc(C(=O)NC(C)c2ccccc2)nc2cc(C(C)(C)C)nn12 (stereo not drawn)
  6	3
Cc1cccc(C(=O)N(Cc2cc(NC(=O)C3CCC3)ccc2N(C)C)CC2CC2)c1
  23	19
CC(C)CN(Cc1cnn(C)c1)C(=O)c1cc(F)c(F)cc1Cl
  3	1
O=C(NCCC(=O)N1CCOCC1)c1ccc2ccccc2c1
  3	2
CN(C(=O)OC(C)(C)C)C1CCN(CC(O)c2ccccc2)CC1 (stereo not drawn)
  6	2
COc1ccc(-n2ccc3nc(N4CCCCC4)ncc3c2=O)cc1
  4	9
CCOC(=O)c1cnc(-c2ccc(OC)c(OC)c2)nc1NCc1cc(F)cc(F)c1
  -5	-9
CCOC(=O)c1c(N)sc2c1CC(C)(C)OC2
  13	9
C=CCN(Cc1ccco1)Cc1c(C)cc(C)c(CO)c1C
  3	1
Cc1ccc(C2(O)C[n+]3ccccc3N2C2CCCCC2)cc1 (stereo not drawn)
  24&-11	18&-14
COc1ccc(NC(=O)N2Cc3ccccc3C2)cc1Br
  6	4
COc1cccc(OC)c1-c1n[nH]c2ccc(C)cc12
  14	12
O=C1CC(C(=O)N2C[C@H]3CC=CC[C@H]3C2)CN1Cc1ccccn1 (stereo partly drawn)
  -2	-3
CCc1nc2ccc(C(=O)Nc3cccc(OCC(=O)N(C)C)c3)cn2c1N(CCC(C)C)CCN(C)C
  -2	-8
CCOc1cc(C(=O)NCc2nnnn2-c2ccc(C)c(C)c2)cc(OCC)c1OCC
  -1	-3
CSCC(=O)N(Cc1ccccn1)Cc1ccccc1C
  0	0
COc1c2c(nc3occc13)C(CC=C(C)C)(OC)C(=O)C=C2 (stereo not drawn)
  0	-2
O=C(CCCn1nnnc1CN1CCOCC1)N1CCC(c2ccccc2Cl)C1 (stereo not drawn)
  10	5
NC(=O)c1cc2ccc(O)cc2oc1=Nc1cccc(C(F)(F)F)c1
  -3	-5
COCc1cc(C)nc(OCC(=O)N/N=C\c2cc(Br)c(O)c(OC)c2)c1C#N
  -1	-6
COc1cccc(C2=NN(C(=O)CN3CCC4(CC3)OCCO4)C(c3ccccc3OC)C2)c1 (stereo not drawn)
  6	12
CC(C)N(C(=O)C(C)S(=O)(=O)c1ccc2ccccc2n1)C(C)C (stereo not drawn)
  7	6
COC(=O)c1cccnc1Nc1ccc(OC)c(S(=O)(=O)N2CCCCC2)c1
  5	-3
Cc1ccccc1CO[C@]1(C(=O)NC(C)C)CC(OCc2ccc(F)cc2)[C@@H]2OC(C)(C)O[C@@H]2C1 (stereo partly drawn)
  2	10

Further results follow.
Results follow in this order: NPYLR7 agonist	NPYLR7 agonist max-min
CCC(C)OC(=O)C1=C(C)NC2=C(C(=O)CC(c3ccc(Cl)cc3)C2)C1c1ccccc1OC (stereo not drawn)
  13	12
Cc1nc(CSc2cn[nH]n2)nc2ccccc12
  2	-2
Cc1ccc(CN(CCc2ccccc2)C(=O)CN(Cc2ccco2)C(=O)c2cccs2)o1
  3	7
COCCNC(=O)CN1CN(c2ccccc2)C2(CCN(S(=O)(=O)c3ccc(F)cc3)CC2)C1=O
  5	11
COc1ccc(C(=O)N2C(C(=O)NCc3ccco3)COC23CCN(C(=O)Cc2cccs2)CC3)cc1 (stereo not drawn)
  -2	1
CCN(CC)c1ccc(NC(=O)c2nc3nc(C)cc(C(F)F)n3n2)cc1
  19	6
CCCCN1C(O)c2ccccc2S1(=O)=O (stereo not drawn)
  10	12
COCCn1cc(C(=O)N2CCCC(n3cccn3)C2)ccc1=O (stereo not drawn)
  4	-2
CC1C(=O)N(c2cccc(Br)c2)CCN1Cc1ccccc1 (stereo not drawn)
  -1	3
Cc1cc(C)c2c(-c3ccccc3)nc(SC(C)C(N)=O)n2n1 (stereo not drawn)
  4	2
CCCc1cc(CN(C)C(=O)CC2(c3ccccc3F)CC(=O)N(CCOC)C2=O)[nH]n1 (stereo not drawn)
  17	8
CN(C)c1ccc(N)cc1CN(CC1CC1)S(C)(=O)=O
  -3	1
O=c1sc(N2CCN(c3ccc(Cl)cc3)CC2)nc2ccsc12
  -3	-3
Cc1ccccc1CC(=O)Nc1ccc(N2CCN(C)CC2)cn1
  3	3
CCCCCOc1ccc(C(=O)Nc2cccc(SC)c2)cc1OCCCCC
  -9	-14
CN(C)c1ccc(C2=NN(c3ccccc3)C(c3ccccc3)C2)cc1 (stereo not drawn)
  -1	-8
Clc1ccccc1-c1nc(-c2ccncc2)no1
  -7	-8
Cc1cccc(N2CCN(C(C)C(=O)Nc3cc(C)on3)CC2)c1 (stereo not drawn)
  2&9	-1&13
Cc1cc(C(=O)Nc2nnc(-c3ccno3)o2)nn1C
  2	0
Cc1cccnc1CN1CCN(Cc2nc(C(c3ccccc3)c3ccccc3)no2)CC1
  5	3
C=C(C)CSc1nc2c(c(=O)[nH]c(=O)n2C)n1CCC(C)C
  13	3
Cc1cccc(NC(=O)CCC2CCN(C(=O)c3ccc4ncccc4c3)CC2)c1
  7&8	1&3
N#CC1C(=N)Oc2cc(O)ccc2C1c1cccs1 (stereo not drawn)
  11	5
Cn1c(C(=O)NCC2(O)CCCNCC2)cc2cccc(Cl)c21 (stereo not drawn)
  5	7
